MT1-MMP act inh: MT1-MMP (human) activation inhibition | P50281 | HT1080 RFP-PRO-GFP cells, GFP/RFP ratio fluorescence, overnight; percent of plate control window, DMSO zero | GFP/RFP ratio change, % at 20 µM | 0.061% of 360,000 active;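 active = GFP/RFP ratio change of at least 30% with cell ATP level not reduced by more than half and red fluorescence within 50% of control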; also: strong numbers were not always called active
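Compound: 20 µM single dose, 1% DMSO / System: HT1080 RFP-PRO-GFP cells / Controls: DMSO and RFP-L50D-GFP cell wells / Read-out basis: GFP/RFP fluorescence ratio / Schedule: overnight compound exposure at 37 °C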
eIF4H inh: inhibitors of RNA binding by human eIF4H. Q15056. eIF4H fluorescence polarization binding assay. inhibition, % at 35 µM. 0.94% of 290,000 active;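 active = 50% or more with normal probe brightness, or confirmed in later tests; about a fifth of its hits are not listed in these tables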;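 also: calls also rest on retests at 20 µM and on dose response follow-up; 0% = protein and probe with vehicle and 100% = probe without protein; strong numbers were not always called active; many hits fall short of the cut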
UUG fidelity: yeast start codon fidelity modulation. S. cerevisiae UUG-firefly luciferase reporter, luminescence/redox ratio. activity score, % at 18.7 µM. 0.13% of 350,000 active. AID 602363;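 active = replicate mean at a twofold rise or more, about +100% in these data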;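 also: firefly luciferase made from a UUG start codon reports start codon fidelity; reporter light over untreated wells divided by growth signal over untreated wells; some hits fall short of that in this replicate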
CSC inhib: blocks cancer stem cells. 1.1% of 300,000 active. cancer stem cell-like cells viability, luminescence. AID 2717. inhibition, % at 7.5 µM;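 active = mean at 75% or more and at least half the replicates too; tested in HMLE shEcad cells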;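 also: 0% = median of negative and 100% = median of positive control wells; the first replicate is given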
HIV Env fusion: HIV envelope-mediated fusion inhibition; HeLa-JRFL Env/CEM21 cell fusion, luciferase; inhibition, % at 12.3 µM; 1.1% of 360,000 active;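 active = mean replicate inhibition score of at least 50 and every replicate individually at or above 50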;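 also: 0% = plate neutral controls and 100% = maraviroc near 300 nM; one replicate is shown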
PABP polyA inh: blocks human PABP binding to poly(A) RNA | P11940 | fluorescence polarization | inhibition, % at 35 µM | 1% of 290,000 active | AID 2014;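 active = 50% or more with normal probe brightness, or confirmed in later tests; about a fifth of its hits are not listed in these tables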;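 also: calls also rest on retests at 20 µM and on dose response follow-up; controls were probe without protein and protein plus probe with vehicle; some compounds called inactive have numbers as strong as hits; many hits fall short of the cut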
Rce1 inh: inhibitors of yeast Ras-converting enzyme. yeast membranes, quenched prenylated peptide cleavage fluorescence. 0.27% of 290,000 active. Q03530. calls only;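 active = fall in fluorescence gain of 50% or more versus controls, with final raw signal at or below 3038400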;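 also: plate controls were neutral control wells for no effect and wells lacking membranes for full effect; tested at 10 µM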
Target sequence (Q03530 whole entry, looked up): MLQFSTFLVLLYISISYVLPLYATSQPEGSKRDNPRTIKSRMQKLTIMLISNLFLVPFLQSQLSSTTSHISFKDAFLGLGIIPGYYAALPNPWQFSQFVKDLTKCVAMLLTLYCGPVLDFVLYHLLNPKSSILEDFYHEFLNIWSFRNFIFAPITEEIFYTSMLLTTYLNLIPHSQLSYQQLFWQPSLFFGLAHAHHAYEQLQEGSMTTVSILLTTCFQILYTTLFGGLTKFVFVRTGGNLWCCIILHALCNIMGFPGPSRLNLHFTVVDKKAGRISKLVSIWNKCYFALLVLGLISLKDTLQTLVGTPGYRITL
MT1-MMP act inh RFP: second read-out of MT1-MMP act inh, no call of its own (marks repeat the call); RFP signal change, %; measured here: RFP expression control read;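 0 = vehicle wells; hits needed this value within 50% of zero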
An asterisk follows results filed as active; i = inactive; nt = no result given; & = joins results of further samples.

Structure	MT1-MMP act inh	MT1-MMP act inh RFP	eIF4H inh	UUG fidelity	CSC inhib	HIV Env fusion	PABP polyA inh	Rce1 inh
O=C(CCC(=O)Nc1ccccc1Cl)NNC(=O)c1ccco1	6	3	-4	4	-2	-2	-2	i
O=C(Nc1cnc2ccccc2c1)N1CCOCC1	2	0	-9	105*	-1	nt	-12	i
COC(=O)c1ccc(=O)n(Cc2ccc3c(c2)OCO3)c1	-4	2	3	nt	-1	nt	4	i
O=Nc1c(-c2c(O)[nH]c3cc(Br)ccc23)[nH]c2ccccc12	77*	27*	-9	-6	103*	nt	-3	i
CCOC(=O)CSc1nn(C)c(=S)s1	0	8	0	-12	16	-50	-1	i
CCN(C(=O)CCN1C(=O)c2ccccc2S1(=O)=O)c1ccccc1	4	-1	nt	13	2	3	nt	i
CCOC(=O)N1CCN(C(=O)C2CCN(S(=O)(=O)c3ccc(Br)s3)CC2)CC1	-2	-2	0	-6	-8	nt	3	i
Cc1c(C(=O)Oc2cccc3cccnc23)cccc1[N+](=O)[O-]	-3	2	11	9	-10	-7	3	i
COc1ccccc1NS(=O)(=O)c1cc(Cl)ccc1OC	0	-6	3	-2	-7	-58	1	i
Cn1cnnc1SCC(=O)Nc1ccc(OCc2ccccc2)cc1	5	-1	0	nt	19	-8	1	i
CC(C)CC(=O)Nc1ccc2nn(-c3ccccc3)nc2c1	6	0	-2	nt	nt	-96	0	i
Cc1cccc(C(=O)NC(=S)NNC(=O)c2cccs2)c1	4	3	1	nt	5	6	7	i
CCOc1ccc(-n2c(=O)c3c(C)c(C)sc3n(CC(=O)NCc3ccco3)c2=O)cc1	-2	1	-2	nt	0	nt	-2	nt
COc1cccc(C(=O)N2CCOCC2)c1	2	1	-5	nt	-6	21	-6	i
Cc1ccc(C)c2[nH]c(=O)c(C(c3nnnn3Cc3ccccc3)N3CCc4ccccc4C3)cc12 (centres undefined)	-13	3	8	4	-5	-117	36	i
Cc1nc2cc(C(F)(F)F)ccc2n1C1CCN(CC(=O)NC(C)(C)C)CC1	11	5	-4	-1	11	-10	5	i
CC(=O)Nc1ccc(NC(=O)C2CCN(S(C)(=O)=O)CC2)cc1	-4	4	nt	-14	nt	-31	nt	nt
O=C(C(=O)N1CCOCC1)c1c[nH]c2ccccc12	7	7	-6	nt	-9	-6	1	i
CC1CCCC(C)N1C(=O)CN1CCN(c2nc(-c3ccc(F)cc3)cs2)CC1 (centres undefined)	-4	-20	-10	-2	9	58*	6	i
COc1ccc(S(=O)(=O)N(C)C[C@H]2Oc3c(NC(=O)C4CCCCC4)cccc3C(=O)N([C@H](C)CO)C[C@@H]2C)cc1	10	0	nt	14&-11	-40	36	nt	nt

Structural class, those above with a halogen
Structure	MT1-MMP act inh	MT1-MMP act inh RFP	eIF4H inh	UUG fidelity	CSC inhib	HIV Env fusion	PABP polyA inh	Rce1 inh
O=C(CCC(=O)Nc1ccccc1Cl)NNC(=O)c1ccco1	6	3	-4	4	-2	-2	-2	i
O=Nc1c(-c2c(O)[nH]c3cc(Br)ccc23)[nH]c2ccccc12	77*	27*	-9	-6	103*	nt	-3	i
CCOC(=O)N1CCN(C(=O)C2CCN(S(=O)(=O)c3ccc(Br)s3)CC2)CC1	-2	-2	0	-6	-8	nt	3	i
COc1ccccc1NS(=O)(=O)c1cc(Cl)ccc1OC	0	-6	3	-2	-7	-58	1	i
Cc1nc2cc(C(F)(F)F)ccc2n1C1CCN(CC(=O)NC(C)(C)C)CC1	11	5	-4	-1	11	-10	5	i
CC1CCCC(C)N1C(=O)CN1CCN(c2nc(-c3ccc(F)cc3)cs2)CC1 (centres undefined)	-4	-20	-10	-2	9	58*	6	i

(cont.)
Structure	MT1-MMP act inh	MT1-MMP act inh RFP	eIF4H inh	UUG fidelity	CSC inhib	HIV Env fusion	PABP polyA inh	Rce1 inh
COC(=O)c1cc(Cl)c(NC(=O)c2ccc(F)cc2)cc1OC	0	-3	-4	nt	-3	-24	2	i
Cc1ccccc1NC(=O)c1ccccc1NC(=O)c1ccccc1F	-1	1	-5	-18	-7	-3	1	i
Cc1ccc2sc(NC(=O)CN3C(=O)CCC3=O)nc2c1C	-1	-1	-2	-3	-4	-18	-9	i
O=C(CN1C(=O)CSc2ncccc21)NCCN1CCOCC1	-7	2	5	-18	-16	-3	-1	i
CCc1cc(C(=O)c2ccc(OC)cc2)c(NC(=O)COCC(=O)O)s1	-4	-1	-6	-7	nt	11	-2	i
Cc1ccc([N+](=O)[O-])cc1NC(=O)c1cccnc1	2	-1	-15	-22	-4	-5	-3	i
COc1cc(NC(=O)c2ccc(OC)c([N+](=O)[O-])c2)ccc1NC(=O)c1cccs1	2	0	-3	-9	-1	-62	2	i
Cc1n[nH]c(C)c1S(=O)(=O)N1CCc2ccccc21	-5	4	7	-16	-5	-27	-3	i
COc1ccc(C(=O)Nc2ccccc2C(=O)NCc2cccnc2)cc1OC	-5	1	-5	-10	8	-32	-15	i
CCCc1cc(Nc2ccccc2OCC)n2ncnc2n1	2	2	-1	-11	-9	-188	-4	i
COc1ccc(N2CCN(C(=O)c3ccc(CS(=O)(=O)c4ccccc4C)o3)CC2)cc1	3	3	7	0	6	19	-1	i
Cc1oc(-c2nc3ccccc3n2C)cc1C(=O)c1ccccc1	-5	-3	5	-66	39	-174	-9	nt
CCc1nnc(NC(=O)Nc2ccc(Cl)cc2)s1	2	-8	4	nt	-3	-4	-2	i
CC1CCN(c2ccc3nnc(CCC(=O)NCc4ccco4)n3n2)CC1	-3	6	-14	-21	-6	3	0	i
COc1ccc(NC(=O)C2(C)CCN2CC2CCCCC2)cc1OC (centres undefined)	2	1	nt	-36	nt	6	nt	nt
Cc1ccc(S(=O)(=O)c2nnn3c2nc(N2CCOCC2)c2ccccc23)cc1	-1	3	0	-9	-5	-9	2	i
O=c1cc(O)c2sc3nc(-c4ccccc4)cc(C(F)(F)F)c3c2[nH]1	-12	-2	5	-13	-11	13	2	i
O=C(c1cc(-c2ccccc2Cl)nc2ccccc12)N1CCN(c2ccccc2O)CC1	-2	-2	nt	nt	16	nt	nt	i
O=C(Nc1ccc(N2CCOCC2)cc1)C1CC1	1	2	-8	-9	-7	12	2	i
CCN(C(=O)CSc1ncnc2c1cnn2-c1ccccc1)C1CCS(=O)(=O)C1 (centres undefined)	9	-5	nt	nt	-12	-33	nt	i

Next structures.
Structure	MT1-MMP act inh	MT1-MMP act inh RFP	eIF4H inh	UUG fidelity	CSC inhib	HIV Env fusion	PABP polyA inh	Rce1 inh
CCOC(=O)c1cc(C#N)c(Oc2ccc(F)cc2)nc1-c1ccccc1	-7	-11	-14	10	7	nt	-5	i
C#CCn1ccc(O)c(Cc2ccccc2)c1=O	1	2	-10	-14	-5	11	4	i
O=C1C2CCCN2C(c2ccc(Br)cc2)N1c1ccc(F)cc1 (centres undefined)	-4	3	-8	6	-6	-16	0	i
O=C(CSc1nc2ccccc2o1)Nc1nc(-c2ccccc2)cs1	-1	0	-5	-29	0	-21	-20	i
COc1ccc(NC(=O)c2ccc(-n3cncn3)c([N+](=O)[O-])c2)cc1OC	7	2	nt	-18	-5	nt	nt	i
O=C(CN1CCN(C(=O)c2cc(C3CC3)nn2-c2ccccc2)CC1)Nc1ccc(F)cc1	-3	-2	nt	-8	nt	-4	nt	nt
O=C1NC2=C(C(=O)CCC2)C(c2ccccc2)N1 (centres undefined)	2	-1	-4	-11	18	-3	7	i
Cc1ccc(P(C)(=O)c2ccc(C)cc2)cc1	-2	-1	-5	-19	-16	nt	4	i
CCCCCC(C(=O)O)C(C)CC(=O)NC1CCCCC1 (centres undefined)	2	1	-10	-8	-11	nt	4	i
CCc1ccccc1NC(=O)CN(C)C(=O)CSc1nnc(Nc2cccc(C)c2)s1	-1	-2	1	nt	-12	nt	-6	i
O=C(O)c1cnc2[nH]c3ccccc3n2c1=O	1	-1	-1	-14	-5	7	3	i
COc1ccc(-n2nc(C(=O)NCC(=O)N3CCCC3)c3ccccc3c2=O)cc1	2	2	-7	-8	-45	-3	-3	i
CC(=O)c1sc(N/N=C\c2ccc(C)cc2)nc1C	-14	-4	6	nt	24	-58	0	i
CCc1ccc(NC(=O)C(NS(=O)(=O)c2ccc3c(c2)CCN3C(C)=O)C(C)C)cc1 (centres undefined)	-4	1	-11	-15	-3	13	2	i
COc1cc(C(=O)NNC(=O)C2CC=CCC2C(=O)O)cc(OC)c1OC (centres undefined)	4	8	-7	nt	4	22	4	i
CCC/C=C1/CCCOC(C(=O)NCCNCCO)(C(F)(F)F)C1 (centres undefined)	4	2	nt	0	-1	-25	nt	i
CCOC(=O)c1ccccc1NC(=O)CN(c1ccccc1OCC)S(C)(=O)=O	6	-2	-4	-7	-6	11	4	i
COc1cccc(COCC(O)CN2CCC(C(N)=O)CC2)c1 (centres undefined)	1	2	-6	-6	-5	-18	5	i
CC1=C(C(=O)Nc2ccccc2Cl)C(c2ccc(N(C)C)cc2)NC(=O)N1 (centres undefined)	-18	0	-3	-3	-5	nt	-4	i
Cc1nn(C)c(Cl)c1NC(=O)OCc1ccccc1	10	-2	-12	-10	10	24	-15	i

More records.
Values in the order – MT1-MMP act inh | MT1-MMP act inh RFP | eIF4H inh | UUG fidelity | CSC inhib | HIV Env fusion | PABP polyA inh | Rce1 inh
> O=C(NCc1n[nH]c(=S)n1-c1ccc(Br)cc1)c1ccc(S(=O)(=O)N2CCCC2)cc1
    2 | 4 | 2 | -22 | -8 | -13 | -14 | i
> Cc1ccc(CN2CCN(Cc3cnn(-c4ccc(Cl)cc4)c3)CC2CCO)o1 (centres undefined)
    2 | -5 | -4 | nt | -11 | 3 | 3 | i
> CSc1nnc(-c2ccncc2)n1CCCN1CCCC1=O
    -1 | -3 | -16 | nt | -6 | -33 | 37 | i
> O=C(O)c1ccc(/C=N/n2cc(-c3ccccc3)[nH]c2=S)cc1
    -2 | 1 | 14 | nt | 10 | 0 | 9 | i
> Cc1ccc(-c2nnc(SCC(=O)Nc3ccccc3N3CCOCC3)o2)cc1
    4 | 3 | -1 | -11 | nt | -127 | 11 | i
> COc1ccc(Cl)cc1C(=O)Nc1cccc(-c2ccc3nncn3n2)c1
    3 | 3 | -34 | nt | -6 | 3 | -11 | i
> O=C(CC(Sc1ccc(Br)cc1)C(=O)O)c1ccc(F)cc1 (centres undefined)
    -3 | 1 | -2 | -17 | nt | 12 | -6 | i
> COc1ccc(C2C(C(=O)Nc3cc(OC)c(OC)c(OC)c3)c3ccccc3C(=O)N2C)cc1OC (centres undefined)
    1 | 0 | -2 | 9 | 2 | -5 | 16 | i
> COc1ccc(N(Cc2ccccc2)N=O)cc1
    2 | 6 | -8 | -3 | -1 | -16 | 13 | i
> COc1ccc(CC(O)CC2c3c(cc4c(c3OC)OCO4)CCN2C)cc1 (centres undefined)
    -11 | -5 | -5 | -11 | -2 | -7 | -10 | i
> Cc1ccc(S(=O)(=O)N2C[C@H]3[C@H]4C(=O)N(c5ccccc5)C(=O)[C@H]4C[C@H](OC(=O)Nc4c(C)noc4C)[C@@]3(O)C2)cc1
    0 | 4 | nt | -18 | nt | 9 | nt | nt
> O=S(=O)(c1cnccc1N1CCN(CCO)CC1)N1CCCCC1
    0 | 3 | -2 | -7 | -15 | -1 | 7 | nt

Bioassay records deposited in PubChem BioAssay by several laboratories.

Some of the compounds tested; rates above refer to the full screens.
